GALR2 agonist: activates the human galanin receptor 2; O43603; GALR2-expressing cells, agonist activation read-out; activation, %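 (tested at 5 µM)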; 0.48% of 140,000 active; AID 803;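 active means above mean plus 3 SD of all compounds, about 5% in these data, not always enough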;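 further: 0% = vehicle buffer wells and 100% = reference agonist at full effect; tested in CHO reporter cells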
Target sequence (O43603 whole entry, looked up): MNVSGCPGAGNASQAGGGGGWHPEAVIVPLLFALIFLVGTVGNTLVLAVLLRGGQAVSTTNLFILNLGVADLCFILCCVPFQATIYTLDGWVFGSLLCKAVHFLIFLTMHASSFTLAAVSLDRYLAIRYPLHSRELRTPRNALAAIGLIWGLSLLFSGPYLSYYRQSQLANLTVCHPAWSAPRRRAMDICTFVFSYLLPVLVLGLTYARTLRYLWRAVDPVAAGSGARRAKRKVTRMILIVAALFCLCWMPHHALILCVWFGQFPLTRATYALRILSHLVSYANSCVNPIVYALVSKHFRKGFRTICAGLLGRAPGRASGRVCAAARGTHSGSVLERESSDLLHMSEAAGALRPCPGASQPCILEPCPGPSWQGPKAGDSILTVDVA
Insulin prom inh: TRM-6 insulin promoter activity inhibition; AID 1273; inhibition, % at 2 µM; 0.9% of 130,000 active; TRM-6 cells (human fetal islet line), insulin promoter-eGFP reporter, imaging; reporter expression induced with tamoxifen;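 active means inhibition above the mean plus 3 SD, with well images judged a real hit on visual review, cut at about 60% in these data, passing the limit was not always enough; inconclusive means inhibition over the cutoff but images rejected on review; inactive means inhibition not above the cutoff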
RGS16-Gao: modulates binding between human RGS16 and Galphao | O15492+P09471 | bead-based flow cytometry RGS16-Galphao binding, fluorescence; actives lie on both sides | binding response (% of control), % at 10 µM | 0.38% of 220,000 active | AID 1441;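 active means below 25% or above 175%, edge rows of some plates excepted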;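 further: Galphao activated by GDP with aluminum fluoride before binding; 100% = wells without compound and 0% = beads without RGS; some results beyond the cut were filed as inactive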
Target sequence (O15492 whole entry, looked up): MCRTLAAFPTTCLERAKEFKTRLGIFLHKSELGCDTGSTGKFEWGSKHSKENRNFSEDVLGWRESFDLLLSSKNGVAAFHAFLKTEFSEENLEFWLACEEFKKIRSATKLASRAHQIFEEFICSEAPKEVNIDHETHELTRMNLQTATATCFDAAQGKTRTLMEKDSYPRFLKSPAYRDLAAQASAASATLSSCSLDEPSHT
Target sequence (P09471 whole entry, looked up): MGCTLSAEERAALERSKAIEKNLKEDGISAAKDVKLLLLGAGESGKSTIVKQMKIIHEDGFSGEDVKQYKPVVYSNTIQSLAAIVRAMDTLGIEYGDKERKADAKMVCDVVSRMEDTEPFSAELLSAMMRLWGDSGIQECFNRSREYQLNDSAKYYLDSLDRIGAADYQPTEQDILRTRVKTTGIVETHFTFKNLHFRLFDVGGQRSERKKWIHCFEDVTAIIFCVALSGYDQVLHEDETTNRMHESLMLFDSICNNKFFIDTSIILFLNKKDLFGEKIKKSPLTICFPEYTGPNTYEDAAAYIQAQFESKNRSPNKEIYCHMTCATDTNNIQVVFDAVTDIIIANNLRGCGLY
HSV augment: HSV replication enhancement. HSV replication augmentation in cells, fold increase. maximum fold increase. 0.005% of 220,000 active;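 active means peak rise of 1.5-fold or more in the series; inconclusive means self-fluorescent or not available for retest; tested in PC3 cells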;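 further: first round at 10 µM; read as green reporter fluorescence; hits show the peak of a series up to 25 µM; 1 = signal of infected wells without compound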
PKD1 kinase inh: PKD1 (human) kinase inhibition; Q15139; PKD1 kinase fluorescence polarization assay; inhibition, %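 (about 10 µM by stock and volumes)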; 0.056% of 200,000 active;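 active means inhibition of 50% or more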;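 further: controls were vehicle for no effect and a reference inhibitor for full effect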
Insulin prom inh cell count: also measured in Insulin prom inh; calls as there; normalized cell count, %; measured here: cell count, toxicity; reference of the scale not given here;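 cells exposed to compound for 48 h; stained nuclei by imaging scaled within each plate; lower means fewer cells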
HSV augment primary fold: further read-out of HSV augment, marked with its call; fold increase; compound at 10 µM; measured here: primary screen fold increase 10 uM; tested in PC3 cells;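 GFP signal in the first replicate; 1 = infected wells without compound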
Starred values were filed as active, the others as inactive; i = inactive; ? = inconclusive; · = not tested or not shown; [ ] = dose if it differs, or a comment.

molecule	GALR2 agonist	Insulin prom inh	Insulin prom inh cell count	RGS16-Gao	HSV augment	HSV augment primary fold	PKD1 kinase inh
O=[N+]([O-])c1ccc(NNC(=S)Nc2ccc(F)cc2)cc1	-0.6	-41	57	100	i	0.95	-9
O=C(O)C1CSC2(c3ccc4c(c3)OCCO4)CCC(=O)N12 (centres undefined)	-1.2	14	122	99	i	0.91	0
Cc1cc(-c2cccs2)c(C#N)c(=S)[nH]1	·	·	·	99	i	0.92	·
COc1ccc(/C=C(\C#N)C(=O)OC2CCOC2=O)cc1 (centres undefined)	·	·	·	100	i	0.92	-1
COc1ccc(C2(C(=O)Nc3ccc(C(=O)N4CCOCC4)cc3)CCOCC2)cc1	-1.9	18	148	103	i	0.95	-8
CCOC(=O)c1ccc(NC(=S)NCCc2ccc(F)cc2)cc1	·	·	·	97	i	0.97	0
CCOC(=O)C1CCCN(C(=O)c2cc(-c3ccc(F)cc3)nc3ccccc23)C1 (centres undefined)	·	-11	129	113	i	0.98	-2
CNc1csc(C)c(C)c1=O	-3.1	·	·	97	·	·	5
CC1(C)CC(=O)C=C(Nc2ccc(S(N)(=O)=O)cc2)C1	41*	-407	46	113	i	1.1	-21
O=C(CCNC(=O)c1ccccc1)Nc1cccnc1	·	·	·	101	i	1.2	2
CCCCCC(=O)N/N=C/c1ccco1	-0.4	0	72	100	i	0.87	-1
Cc1nc2cc(-c3ccc(Cl)cc3)nn2c(C)c1CCC(=O)NCc1ccco1	-1.7	·	·	82	i	1	-6
Cc1ccc2c(c1)sc(=NC(=O)C1CC1)n2C	·	·	·	100	i	0.94	·
CCOC(=O)c1cncc(C#CCO)c1	·	·	·	107	i	1.1	·
CC(=O)N1CCC(N(CCN2CCOCC2)C(=S)Nc2cccc(C)c2C)CC1	-0.6	25	63	164	i	1	1
C/C(=N\NC(=O)c1c(Br)c(C)nn1C)c1cccc(NC(=O)C2CCC2)c1	-1.3	0	97	96	·	·	-23
O=S(=O)(Nc1ccc(N2CCCCC2)cc1)c1cccc2cccnc12	-2.1	-60	123	99	i	0.93	9
O=C(N/N=C/c1cccc([N+](=O)[O-])c1)c1ccc2nc[nH]c2c1	-1.5	-39	112	70	i	1	0
Cc1ccc(NC(=O)COC(=O)c2ccccc2Cl)cc1S(=O)(=O)N(C)C	·	8	127	109	i	0.97	-6
Cc1occc1C(=O)N/N=C/c1sc(N2CCOCC2)nc1-c1ccccc1	·	-9	133	98	i	1.1	0
CCCNC(=O)c1csc2c1CCCCC2	-1.2	3	74	101	i	1.1	-3
CSCCC(NC(=O)C1CCC(C)CC1)C(=O)NCCN1CCOCC1 (centres undefined)	-1.1	-29	83	100	i	1	6
CCCOc1ccc(N2C(=O)CC(SC(=NC)Nc3ccc(F)cc3)C2=O)cc1 (centres undefined)	-2.6	-31	87	101	i	0.75	-2
Cc1ccccc1OCC(=O)NNC(=O)Nc1ccccc1	·	57	131	99	i	0.93	7
CCS(=O)(=O)c1ccc2oc(SCC(=O)NCCC3=CCCCC3)nc2c1	-1.9	-18	102	99	i	0.87	-2
CN1CCc2ccccc2CC1=O	-1.7	0	132	91	i	1	-12
N=c1nc(SCCC(=O)O)ss1	-0.8	·	·	97	i	0.98	-8
Cc1cccc(N2CC(C)Cn3c2nc2c3c(=O)n(CC(=O)OCc3ccccc3)c(=O)n2C)c1 (centres undefined)	2.1	88*	64*	101	i	0.89	-6
Cc1cccc(N(Cc2ccccc2)C(=O)CCl)c1	·	·	·	97	i	0.73	-1
Cc1nc2ccccc2n1C(=O)c1ccc(Cl)cc1[N+](=O)[O-]	0.2	13	149	99	i	0.94	-2
CCN(CC)S(=O)(=O)c1cccc(C(=O)N/N=C2\CCCC(=O)C2)c1	·	·	·	102	i	1.1	·
O=C(O)Cn1ncc2ccccc2c1=O	·	·	·	110	i	1	-2
CCC(CC)NC(=O)Nc1ccccc1C(F)(F)F	·	·	·	105	i	1	·
CCOc1ccc(CC2c3cc(OCC)c(OCC)cc3CCN2C(=O)CN2CCN(C)CC2)cc1OCC (centres undefined)	·	·	·	95	i	0.94	·
Cc1ccc(Cn2ccc(NC(=O)c3cc4nc(-c5ccco5)cc(C(F)(F)F)n4n3)n2)cc1	-0.7	33	93	88	i	0.9	-2
CCCC(=O)Nc1ccc(Cl)c(NC(=O)c2cccc(OC)c2)c1	·	24	145	96	i	0.96	6

Shown with values under each structure: part of the list above.
Every second line gives: GALR2 agonist	Insulin prom inh	Insulin prom inh cell count	RGS16-Gao	HSV augment	HSV augment primary fold	PKD1 kinase inh
Cc1cccc(N(Cc2ccccc2)C(=O)CCl)c1
 : ·	·	·	97	i	0.73	-1
Cc1nc2ccccc2n1C(=O)c1ccc(Cl)cc1[N+](=O)[O-]
 : 0.2	13	149	99	i	0.94	-2
CCN(CC)S(=O)(=O)c1cccc(C(=O)N/N=C2\CCCC(=O)C2)c1
 : ·	·	·	102	i	1.1	·
O=C(O)Cn1ncc2ccccc2c1=O
 : ·	·	·	110	i	1	-2
CCC(CC)NC(=O)Nc1ccccc1C(F)(F)F
 : ·	·	·	105	i	1	·
CCOc1ccc(CC2c3cc(OCC)c(OCC)cc3CCN2C(=O)CN2CCN(C)CC2)cc1OCC (centres undefined)
 : ·	·	·	95	i	0.94	·
Cc1ccc(Cn2ccc(NC(=O)c3cc4nc(-c5ccco5)cc(C(F)(F)F)n4n3)n2)cc1
 : -0.7	33	93	88	i	0.9	-2

In the list so far, these contain a thiophene ring, fused or not:
molecule	GALR2 agonist	Insulin prom inh	Insulin prom inh cell count	RGS16-Gao	HSV augment	HSV augment primary fold	PKD1 kinase inh
Cc1cc(-c2cccs2)c(C#N)c(=S)[nH]1	·	·	·	99	i	0.92	·
CCCNC(=O)c1csc2c1CCCCC2	-1.2	3	74	101	i	1.1	-3

Further entries.
molecule	GALR2 agonist	Insulin prom inh	Insulin prom inh cell count	RGS16-Gao	HSV augment	HSV augment primary fold	PKD1 kinase inh
O=C(N/N=C/c1ccc2c(c1)OCO2)c1cc(-c2ccc(F)cc2)nc2ccccc12	-0.1	7	122	102	i	0.6	7
CC1CCN(CCCCOc2ccccc2[N+](=O)[O-])CC1	-1.7	-32	128	100	i	0.93	-3
CN(C)CCCNc1ncnc2sc(-c3ccccc3)cc12	·	·	·	101	i	0.81	·
Cc1cc(C)nc(SCC(=O)NNC(=O)c2cccs2)n1	·	·	·	108	i	0.95	-4
O=C(O)CCc1ccc(-c2ccc(F)cc2)n1CC1CCCO1 (centres undefined)	-0.5	-24	71	96	i	1.1	-4
COc1cc(OC)c(OC)cc1CN1CCCC(C(=O)N2CCCCC2)C1 (centres undefined)	-0.8	-6	174	98	i	0.99	1
CC1=C(C(=O)Nc2ccccc2)C(c2ccccc2)N2C(=O)CSC2=N1 (centres undefined)	-1.3	·	·	92	i	0.9	-8
Cc1ccc(C)c(NC(=O)C(=O)NCCCN2CCOCC2)c1	·	·	·	103	i	1.1	2
COc1ccccc1NC(=O)CC(=O)CSc1nnc(-c2ccc(C)cc2)n1C	-2.9	·	·	102	i	1.1	3
CC(C)Cn1c(CN(C)Cc2ccccc2)nc2c1c(=O)n(C)c(=O)n2C	-1.4	·	·	121	i	0.86	-5
CCOC(=O)c1sc(NC(=O)c2ccccc2F)c(C(N)=O)c1C	2.6	79*	187*	98	i	0.94	9
CCOC(=O)N1CCC2(CC1)C(C(=O)C13CC4CC(CC(C4)C1)C3)C2(C#N)C#N (centres undefined)	-2.6	·	·	102	i	0.68	-14
CCOC(=O)c1c(-c2ccccc2)csc1NC(=O)COc1ccc2c(C)cc(=O)oc2c1	0.3	-31	85	100	i	0.99	-5
CC1CCCCC1NC(=O)C1CCN(S(=O)(=O)N2CCC3(CC2)OCCO3)CC1 (centres undefined)	-1.0	9	85	102	i	0.98	0
CCN1C=C(C(=O)OC)C(c2cccc(OC)c2OC)C(C(=O)OC)=C1	·	·	·	98	i	0.89	-2
CN(C)CCN1C(=O)C(O)=C(C(=O)c2cc3ccccc3o2)C1c1ccc(N(C)C)cc1 (centres undefined)	-1.0	·	·	103	i	1.1	-9
CC(=O)C1=C(O)C(=O)N(C2CCCCC2)C1c1ccccc1 (centres undefined)	-0.5	1	83	103	i	0.8	-1
O=C1CN(Cc2cc(=O)oc3cc4c(cc23)CCC4)CCN1	·	·	·	100	i	0.89	-7
Cc1ccccc1NC(=S)N(CCN(C)C)C(C)c1ccco1 (centres undefined)	-0.8	-28	97	104	i	1.1	-11
O=C(CCN1C(=O)/C(=C/C=C/c2ccccc2)SC1=S)Nc1nc2ccccc2s1	-1.7	17	113	105	i	0.97	1
Cc1ccc(S(=O)(=O)N2CC=C(C(=O)NCc3ccc(F)cc3)CC2)cc1	-1.9	2	130	99	·	·	-8
COc1ccc(OC)c(NC(=O)CSc2nnc(-c3cccnc3)s2)c1	·	·	·	109	i	0.76	0
Cc1cc(NS(=O)(=O)c2ccc(NC(=O)NC(C)(C(F)(F)F)C(F)(F)F)cc2)no1	2.5	4	124	103	i	1.2	0
O=C(CSc1ccccc1C(=O)O)NC12CC3CC(CC(C3)C1)C2	·	·	·	105	i	1.1	·
N/C(=N/OS(=O)(=O)c1ccc([N+](=O)[O-])cc1)c1ccncc1	·	-86	82	90	i	0.99	3
CCN(CC)c1ccc(C(=O)OCc2cc(=O)oc3cc(O)ccc23)cc1	0.7	33	78	109	?	·	9
COc1cc(C=C2C(=O)c3ccccc3C2=O)ccc1O	·	·	·	101	i	1.1	·
CCc1nnc(NC(=O)CSc2nnc(Cc3cccn3C)n2CCOC)s1	-3.0	·	·	117	i	0.97	-4
COC(=O)C1=C(Nc2cc(Cl)cc(Cl)c2)CSC1	·	·	·	95	i	1.1	·
CC(C)CNc1nc2c(c(=O)n(C)c(=O)n2C)n1Cc1cccc(Br)c1	-1.1	53	118	101	i	0.94	1
C/C(Cl)=C\Cn1c(NCCCn2ccnc2)nc2c1c(=O)n(C)c(=O)n2C	0.6	-107	99	105	i	1	1
COc1ccc(-c2cc(C(=O)NCc3cccs3)no2)cc1	·	·	·	96	i	0.95	·
O=C(N/N=C1\NC(=O)C(CO)(CO)S1)c1ccccc1	·	·	·	105	i	1.1	·
C(=N\n1c2ccccc2c2ccccc21)/c1ccccc1	-0.5	-13	124	103	i	0.84	-8
Oc1ccc(-c2cn3c(n2)SCC3)cc1O	-1.5	25	105	64	i	0.98	-8
CCOC(=S)SCC(=O)N1CCc2cc(OC)c(OC)cc2C1C1C(=O)CC(C)(C)CC1=O (centres undefined)	-0.4	-26	92	110	i	1.1	-2
CCOc1ccc(C=O)cc1CN1CCCCC1	-1.9	-64	114	103	i	0.93	-4
O=c1c(Br)c(N2CCOCC2)cnn1-c1ccccc1	·	·	·	105	i	0.92	3
CN(CC(=O)NCCc1ccccc1)S(=O)(=O)c1cccs1	-3.6	·	·	101	i	0.97	-10
O=C(Cc1ccccc1)Nn1c(O)c(/C=C2\C=Nc3ccccc32)sc1=S	-0.4	-59	106	262*[activator]	·	·	-18
Nc1nc(-c2ccccn2)nc(N)c1Cc1ccc(Cl)cc1Cl	·	-43	107	95	i	0.62	-6
O=C(c1ccc(Br)o1)N1CCN(c2ccc3nnc(-c4ccc(F)cc4)n3n2)CC1	1.0	·	·	103	i	0.73	-14
CSCCC(NS(=O)(=O)c1ccc2ccccc2c1)C(=O)O (centres undefined)	-1.8	-64	97	100	i	0.95	5
CC(=O)NS(=O)(=O)c1ccc(NC(=O)/C=C/c2ccco2)cc1	·	20	144	98	i	1.2	1
C=CCNC(=O)N1CCC(CO)(Cc2ccc(Cl)cc2)CC1	·	-60	79	105	i	0.94	2
O=C(Cc1ccc(Br)cc1)Nc1cccc(Cl)c1	·	·	·	107	i	1	-3
COc1cc(C(=O)Nc2sc3c(c2C(=O)NCc2ccco2)CCCC3)cc(OC)c1OC	0.1	19	172	103	i	0.94	-3
Cc1nc(-c2noc(-c3ccccc3Cl)n2)c(C(F)(F)F)o1	·	·	·	100	i	1	·

Assay outcomes from PubChem.
